Source: PubChem BioAssay (several laboratories)
UUG fidelity: alters start codon recognition fidelity in yeast; S. cerevisiae UUG-firefly luciferase reporter, luminescence/redox ratio; actives 0.13% (n = 350,000); activity score, % at 18.7 µM;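 active means replicate mean at a twofold rise or more, about +100% in these data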;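 further: firefly luciferase made from a UUG start codon reports start codon fidelity; reporter light over untreated wells divided by growth signal over untreated wells; some hits fall short of that in this replicate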
MT1-MMP act inh: inhibitors of human MT1-MMP activation; P50281; HT1080 RFP-PRO-GFP cells, GFP/RFP ratio fluorescence, overnight; percent of plate control window, DMSO zero; GFP/RFP ratio change, % at 20 µM; actives 0.061% (n = 360,000);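 active means GFP/RFP ratio change of at least 30% with cell ATP level not reduced by more than half and red fluorescence within 50% of control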; further: strong numbers were not always called active
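Test system: HT1080 cells expressing an RFP-PRO-GFP fluorescent reporter construct / Compound dosing: single-point 20 µM compound, 1% DMSO / Schedule: cells overnight before dosing, compound overnight, 37 °C, 5% CO2 / Evaluation: GFP/RFP fluorescence ratio / Control set: DMSO and RFP-L50D-GFP cell wells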
Rce1 inh: yeast Ras-converting enzyme inhibition. yeast membranes, quenched prenylated peptide cleavage fluorescence. calls only. Q03530. actives 0.27% (n = 290,000). AID 2563;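 active means fall in fluorescence gain of 50% or more versus controls, with final raw signal at or below 3038400; inconclusive means same 50% fall but final raw signal above 3038400; inactive means fall in fluorescence gain under 50%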;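 further: plate controls were neutral control wells for no effect and wells lacking membranes for full effect; tested at 10 µM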
Target sequence (Q03530 whole entry, looked up): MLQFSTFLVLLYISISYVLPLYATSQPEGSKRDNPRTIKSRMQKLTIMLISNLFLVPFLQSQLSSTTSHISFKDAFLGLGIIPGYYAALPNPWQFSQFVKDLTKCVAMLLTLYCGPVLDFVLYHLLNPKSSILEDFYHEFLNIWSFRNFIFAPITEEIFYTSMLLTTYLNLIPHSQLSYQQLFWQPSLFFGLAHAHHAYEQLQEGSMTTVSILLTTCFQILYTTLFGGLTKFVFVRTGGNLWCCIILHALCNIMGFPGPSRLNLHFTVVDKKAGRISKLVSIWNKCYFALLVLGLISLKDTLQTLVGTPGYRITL
CSC inhib: blocks cancer stem cells; cancer stem cell-like cells viability, luminescence; inhibition, % at 7.5 µM; actives 1.1% (n = 300,000); AID 2717;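 active means mean at 75% or more and at least half the replicates too; inconclusive means mean and replicates disagree; tested in HMLE shEcad cells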;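 further: 0% = median of negative and 100% = median of positive control wells; the first replicate is given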
eIF4H FP inh: inhibitors of RNA binding by human eIF4H; Q15056; eIF4H fluorescence polarization binding assay; inhibition, % at 35 µM; actives 0.94% (n = 290,000);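 active means 50% or more with normal probe brightness, or confirmed in later tests; inconclusive means above 50% with abnormal brightness, or retests that disagree; inactive means below 50% or failed in later tests; about a fifth of its hits are not listed in these tables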;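 further: calls also rest on retests at 20 µM and on dose response follow-up; 0% = protein and probe with vehicle and 100% = probe without protein; strong numbers were not always called active; many hits fall short of the cut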
PABP polyA inh: PABP-poly(A) binding inhibition. P11940. PABP-poly(A) RNA binding, fluorescence polarization. inhibition, % at 35 µM. actives 1% (n = 290,000);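 active means 50% or more with normal probe brightness, or confirmed in later tests; inconclusive means above 50% with abnormal brightness, or retests that disagree; inactive means below 50% or failed in later tests; about a fifth of its hits are not listed in these tables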;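 further: calls also rest on retests at 20 µM and on dose response follow-up; controls were probe without protein and protein plus probe with vehicle; some compounds called inactive have numbers as strong as hits; many hits fall short of the cut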
HIV Env fusion: HIV envelope-mediated fusion inhibition; actives 1.1% (n = 360,000); inhibition, % at 12.3 µM; HeLa-JRFL Env/CEM21 cell fusion, luciferase;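 active means mean replicate inhibition score of at least 50 and every replicate individually at or above 50; inconclusive means only one of the two criteria met; inactive means mean below 50 and not all replicates reaching 50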;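 further: 0% = plate neutral controls and 100% = maraviroc near 300 nM; one replicate is shown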
eIF4H FP inh retest: further read-out of eIF4H FP inh, marked with its call; inhibition, %; compound at 20 µM; confirmation average;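 mean of two retest wells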
PABP polyA inh retest: recorded beside PABP polyA inh, whose call it bears; inhibition, %; compound at 20 µM; confirmation repeats;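 mean of two retest wells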
MT1-MMP act inh RFP: also measured in MT1-MMP act inh; calls as there; RFP signal change, %; measured here: RFP expression control read;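 0 = vehicle wells; hits needed this value within 50% of zero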
Starred values were filed as active, the others as inactive; i = inactive; ? = inconclusive; . = not tested or not shown; + = active, no number.

SMILES	UUG fidelity	MT1-MMP act inh	MT1-MMP act inh RFP	Rce1 inh	CSC inhib	eIF4H FP inh	PABP polyA inh	HIV Env fusion	others
O=C(Nc1cccc(C(F)(F)F)c1)C1Cc2c(-c3ccco3)ccnc2O1 (stereo unspecified)	-12	1	-19	.	.	.	.	20
CC(C)C1NC(=S)N(Cc2ccccc2)C1=O (stereo unspecified)	-6	-1	-4	i	-11	-7	-5	5
COc1cccc(-c2cc(C(=O)Nc3c(C)nn(Cc4ccccc4)c3C)no2)c1	-1	-8	-10	i	4	-10	-4	.
O=C(Nc1nnc(SCc2ccc(F)cc2)s1)C1Cc2ccccc2CN1C(=O)c1ccco1 (stereo unspecified)	-20	9	3	i	-1	3	-2	10
CCN(CC)S(=O)(=O)c1ccc2oc(C(=O)N3CCc4ccccc4C3)c(C)c2c1	.	-1	-4	i	27	-10	-8	.
O=C(CN(C(=O)c1ccccc1Cl)C1CCCCC1)Nc1ccc(Cl)c([N+](=O)[O-])c1	-16	-15	-17	i	28	6	10	-23
CCc1nc2ccc(C(=O)N3CCN(C(C)=O)CC3)cn2c1N(CC)C(=O)NCCc1ccccc1	17	0	5	.	.	.	.	-6
O=[N+]([O-])c1cc(-c2nnc(N3CCOCC3)c3ccccc23)ccc1N1CCOCC1	.	-5	-5	i	0	-4	1	14
COc1ccccc1OCCNC(=O)c1c(-c2ccccc2Cl)noc1C	3	-2	-1	i	-1	-1	-10	32
COc1ccc(C(=O)NN=C2CCCC2)cc1	-16	5	1	i	-20	-3	-4	-7
COc1cccc(-c2cc(C(=O)N3CCN(S(=O)(=O)c4ccccc4)CC3)[nH]n2)c1	-14	-5	-7	i	-17	0	0	-110
COc1ccc(CCNC(=O)c2cc(-c3ccco3)nc3ccccc23)cc1	.	.	.	i	7	75*	48*	8	eIF4H FP inh retest=90*;PABP polyA inh retest=73*
Cc1noc(C)c1COc1ccc(C(=O)O)cc1	-1	4	5	i	-16	0	-2	14
COC(=O)[C@@H]1C[C@H]1[C@@H](NS(=O)(=O)c1ccccc1)c1ccccc1	-11	1	2	i	-10	-1	3	5
c1cncc(C2Nc3ccccc3-c3nc4ccccc4n32)c1 (stereo unspecified)	-15	-23	-11	?	47	-8	-6	.
CCn1c(=O)c(=O)[nH]c2cc(C(=O)Nc3ccc(S(=O)(=O)N4CCCC4)cc3)ccc21	-13	9	8	i	-7	-5	-7	-46
COc1ccc(/C(C#N)=C/c2ccccn2)cc1	-23	-2	-4	i	38	22	13	-75
CCOC(=O)c1cc(-c2ccc(C)cc2)n(CC(=O)NCc2ccco2)c1C	-17	0	1	i	-6	-1	3	-11
O=C(Nc1nnc(SCc2ccc(F)cc2)s1)C1=COCCO1	-23	6	1	.	.	.	.	i
Oc1ccc(C(=S)N2CCCC2)cc1	-15	-2	1	i	2	1	-3	-17
CCCCN1C(=O)/C(=C/C=C2/C=Cc3ccccc3N2CC)SC1=S	.	28	1	i	33	-1	0	9
COc1ccc(NC(=O)C2CCCN(S(=O)(=O)c3cccc4nonc34)C2)cc1 (stereo unspecified)	-15	-2	1	i	-11	-12	-2	.
COc1ccc(N2CCN(C(=O)Cn3c(=O)[nH]c4ccsc4c3=O)CC2)cc1	-15	0	2	i	-3	2	10	-40
COC(=O)c1ccc(COC(=O)CCc2nc(-c3ccccc3)c(-c3ccccc3)o2)cc1	-22	8	2	i	-7	5	-4	-20
CCOC(=O)COn1c(=O)c(C)[n+]([O-])c2ccccc21	-4	-22	1	i	-2	1	14	1
O=C(C(c1ccccc1)C(O)(c1ccccc1)c1ccccc1)N1CCOCC1 (stereo unspecified)	-20	-5	0	.	.	.	.	-30
COc1ccc(NC(=O)CC2(CC(=O)O)CCCC2)cn1	-9	-1	2	.	6	14	39	4
O=c1nc(N2CCOCC2)ccn1Cc1ccc(Br)cc1	2	2	3	i	.	0	-1	.
CCOc1ccc2[nH]c(=O)c(CN(CCCN3CCOCC3)C(=O)Nc3ccc(F)cc3)cc2c1	-29	7	4	.	.	.	.	6
COc1cc(/C=N/NC(=O)C(C)Nc2n[nH]c(=O)[nH]c2=O)cc(OC)c1O (stereo unspecified)	-11	-1	1	i	-5	-9	-4	-5
CC(Sc1n[nH]c(N)n1)C(=O)Nc1cccc(S(=O)(=O)N2CCOCC2)c1 (stereo unspecified)	.	-1	-2	i	-12	-6	-4	-8
C=CCOc1ccc(C2/C(=C(/O)c3ccc(OC)cc3)C(=O)C(=O)N2CCN2CCNCC2)cc1 (stereo unspecified)	-3	0	2	i	-5	-7	14	1
CCCCC(C(=O)NC1CCCC1)N(C(=O)c1snc(C(N)=O)c1N)c1ccc(OCC)cc1 (stereo unspecified)	-9	-6	-9	i	2	-1	0	6
COc1ccccc1NC(=S)N(Cc1ccco1)Cc1cc2cc(C)c(C)cc2[nH]c1=O	-20	-10	-14	i	-11	5	7	41
c1ccc(-c2nccc(-c3ccc(-n4cnc5ccccc54)cc3)n2)nc1	-37	-8	-11	i	-9	42	10	-39
CC1CC(C)CN(C(=O)c2cc3ccccc3o2)C1 (stereo unspecified)	-1	-3	-2	i	4	.	.	.
CCOc1ccc(NC(=O)C2CCN(S(=O)(=O)c3c(C)noc3C)CC2)cc1	4	-3	-2	i	-5	-8	-17	4
Cc1cccc(Cn2c(C)c(C)c3cc(C(=O)NCCN4CCOCC4)ccc32)c1	15	4	-1	i	6	-4	15	-5
CN(C)c1ccc(-c2n(C)c3ccccc3[n+]2C)cc1	.	4	-21	i	.	-2	-13	.
COc1cc(=O)[nH]c(SC(C)C(=O)Nc2cc(C)on2)n1 (stereo unspecified)	-14	-1	3	i	-1	-15	4	-6

Sorted by molar mass (low to high): some entries from above
SMILES	UUG fidelity	MT1-MMP act inh	MT1-MMP act inh RFP	Rce1 inh	CSC inhib	eIF4H FP inh	PABP polyA inh	HIV Env fusion	others
c1ccc(-c2nccc(-c3ccc(-n4cnc5ccccc54)cc3)n2)nc1	-37	-8	-11	i	-9	42	10	-39
O=c1nc(N2CCOCC2)ccn1Cc1ccc(Br)cc1	2	2	3	i	.	0	-1	.
Cc1cccc(Cn2c(C)c(C)c3cc(C(=O)NCCN4CCOCC4)ccc32)c1	15	4	-1	i	6	-4	15	-5
COc1ccc(NC(=O)C2CCCN(S(=O)(=O)c3cccc4nonc34)C2)cc1 (stereo unspecified)	-15	-2	1	i	-11	-12	-2	.

Continued.
SMILES	UUG fidelity	MT1-MMP act inh	MT1-MMP act inh RFP	Rce1 inh	CSC inhib	eIF4H FP inh	PABP polyA inh	HIV Env fusion	others
O=[N+]([O-])c1cccc(S(=O)(=O)Nc2ccc(-c3ccc(N4CCCC4)nn3)cc2)c1	0	4	-5	i	-3	.	.	-6
CCOC(=O)N1CCN(C(=O)c2ccc(N(Cc3ccc(Cl)cc3)S(C)(=O)=O)cc2)CC1	5	-1	-12	i	-12	-8	5	10
Cn1c(=O)c2c(O)c(Cc3ccccc3)c(=O)n(C)c2n(C)c1=O	0	6	4	i	-7	-9	2	21
O=C(COC(=O)c1ccco1)NC1CCCc2ccccc21 (stereo unspecified)	-8	0	0	.	7	.	.	.
Cc1ccc(CNC(=O)Cc2ccc(-n3c(=O)[nH]c4ccsc4c3=O)cc2)cc1	-11	13	-2	i	48	-11	-2	.
Cc1cccc2sc(NC(=O)CN(C)S(=O)(=O)c3cccs3)nc12	.	0	-7	i	-7	-1	-7	.
Cc1ccccc1C(=O)N/N=C1/SCC(=O)N1Cc1ccccc1	.	0	0	.	-8	6	0	17
CCc1nc2ccc(C(=O)N(C)C(C)C)cn2c1N(CCC(C)C)CCN(C)C	-5	2	4	.	.	.	.	12
COc1ccc(S(=O)(=O)Nc2ccc(Cc3ccncc3)cc2)cc1C	-21	-6	-14	i	30	3	-7	.
Nc1cc(=O)[nH]c(N2CCN(c3ccccc3)CC2)n1	.	4	1	i	-11	1	-10	5
c1cc(-c2nnc3n2CCC3)[nH]n1	-15	7	7	i	.	-1	2	.
Cc1ccc(S(=O)(=O)N2CCCCC2)cc1C(=O)c1nccn1C	6	1	-1	i	-4	-5	9	-22
Cc1ccnc(NS(=O)(=O)c2ccc(NC(=O)COc3ccccc3)cc2)n1	.	-1	4	i	-22	-4	-8	8
O=[N+]([O-])c1ccc(N/N=C\c2cccnc2)nc1	.	-3	-2	i	-9	-6	1	-66
CN1C(=O)N(C)C(c2cccc([N+](=O)[O-])c2)C2=C1CCCC2=O (stereo unspecified)	-16	-3	-1	i	-4	-2	-9	13
O=C(NCc1ccccc1Cl)c1nnc(CS(=O)(=O)c2ccccc2)o1	-19	2	6	i	-14	-3	1	-3
COc1ccccc1NC(=O)C/C(C)=N/NC(=O)C12CC3CC(CC(C3)C1)C2	-15	5	3	i	-4	2	14	22
CCCCC[n+]1cccc2c3ccccc3ccc21	.	-22	-30	+	13	-4	-10	97*
CSCC[C@H](NC(=O)[C@@H]1Cc2c([nH]c3ccccc23)C2c3ccccc3C(=O)N21)C(=O)NCC1CCCO1 (stereo partly specified)	2	-1	-3	i	-5	-13	1	.
COc1ccc(CC(=O)Nc2ccc(/C(C)=N\NC(=O)c3ccc(Br)o3)cc2)cc1	-15	0	-4	i	.	0	5	10
Brc1ccc(-c2nc(-c3cccnc3)no2)o1	-7	-6	-5	i	-14	4	-2	-117
Cc1ccccc1/C=N/n1c(-c2cc(-c3ccccc3)n[nH]2)n[nH]c1=S	.	-1	2	i	9	-18	-6	-5
Cc1nc2c(ccc3nc(NC(=O)c4ccc5c(c4)OCCO5)sc32)s1	.	-3	-7	i	.	-32	-17	.
Cc1cc[n+](-c2[nH]c(=O)sc2/C=N/NC([S-])=Nc2ccccc2)cc1C	-40	-74	-2	i	-10	?	-15	-26
CC12CCC(=O)N1C(C(=O)Nc1cc(Cl)ccc1N1CCOCC1)CS2 (stereo unspecified)	6	0	-5	i	-10	-4	-3	.
CC1=C(C)CC(C(=O)NNC(=O)c2csc(C)c2C)C(C(=O)O)C1 (stereo unspecified)	.	6	10	i	-15	14	4	6
CCCC1(C(=O)OC)NC(c2ccco2)C2C(=O)N(c3ccc(C)cc3)C(=O)C21 (stereo unspecified)	-17	0	2	i	3	8	-1	-34
CCOC(=O)c1ccc(N(C(=O)c2cnccn2)C(C(=O)NC2CCCCC2)c2cn(C)nc2C)cc1 (stereo unspecified)	-32	4	5	i	-1	3	4	-5
CC(=O)N1CCc2cc(S(=O)(=O)CCC(=O)NCCc3ccc(C)cc3)ccc21	-11	3	-3	i	3	0	15	-2
COc1ccc(C(=O)Nc2nnc(S(=O)(=O)N3CCCCCC3)s2)cc1OC	-3	0	2	i	0	-8	3	10
COc1ccccc1-n1c(C)cc(C=O)c1C	35	2	3	i	-5	2	-8	.
CCNc1nc(NCC)n2c(SC(C(=O)Nc3cc(Cl)cc(Cl)c3)c3ccccc3)nnc2n1 (stereo unspecified)	-19	4	-13	i	?	-9	7	-137
O=C1CC(Sc2ncccc2C(=O)O)C(=O)N1 (stereo unspecified)	-14	2	6	i	6	3	-1	3
COc1ccc(NC(=O)c2cc(-c3ccco3)on2)c(OC)c1	-9	-2	-1	i	3	0	-15	-10
COc1cc(CNC(C)C23CC4CC(CC(C4)C2)C3)cc(OC)c1OC (stereo unspecified)	-23	1	-1	i	6	0	-3	12
COc1ccc(NC(C)C(=O)N/N=C/c2ccccc2OCc2cccc(Br)c2)cc1 (stereo unspecified)	.	-3	-6	i	21	-12	6	5
